motility = Vibrio cholerae motility inhibitors, OD read-out (AID 588778); Vibrio cholerae motility, OD read-out; higher % means a stronger effect; test concentration not given here; primary cut-off and reference of the scale not given here; strong numbers were not always called active; one-dose inhibition, %; IC50 in µg/mL for titrated hits; 10,000 tested, under 10 active; in the data active means confirmed in a dose series
motility viability = also measured in motility; calls as there; inhibition, %; measured here: bacterial viability at 10 ug/mL;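 higher means fewer living bacteria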
* hit, by the source's call.

SMILES | motility | motility viability
Cc1ccc(NC(=O)Nc2ccccc2C(F)(F)F)c(OC(F)F)c1 | -2% | -4
O=C(Cc1c(F)cccc1Cl)Nc1cccc(S(=O)(=O)N2CCOCC2)c1 | 15% | -2
CC1=C(C(=O)OCc2ccccc2)C(c2ccsc2)NC(=O)N1C (configuration not stated) | 2% | -1
CS(=O)(=O)c1ccc(N2CCN(C3CC(=O)NC3=O)CC2)cc1 (configuration not stated) | -9% | 0
O=C(Nc1nccs1)c1ccc2c(c1)C(=O)N(Cc1ccco1)C2=O | -10% | -6
N#Cc1ccc(C(=O)Nc2cccc3ncccc23)c(F)c1 | -3% | -6
Cc1nn(Cc2cccc(C(=O)Nc3nc4ccc(S(C)(=O)=O)cc4s3)c2)c(C)c1Cl | -4% | -3
Cc1ccc(OCc2nnc(SCC(=O)N3CCc4ccccc43)n2N)cc1C | -18% | -12
O=C(/C=C/c1cn(-c2ccccc2)nc1-c1ccc(Cl)cc1)c1cccs1 | -22% | -11
COc1c(S(=O)(=O)n2nnc3ccccc32)ccc(Cl)c1Cl | 0% | -4
O=C(COc1cc(Cl)c(Cl)cc1Cl)Nn1cnnc1 | -12% | -2
CCC(C)(C)C1CCC(NC(=O)C(=O)Nc2ccc(Br)c(C)c2)CC1 (configuration not stated) | 0% | 5
Cc1ccc2nc(/C(C#N)=C/c3ccccc3C(=O)O)[nH]c2c1 | -3% | -5
Cc1ccc(NC(=O)COc2ccccc2)c(NC(=O)C2CC2)c1 | -16% | -3
Oc1c(C(Nc2cccnc2)c2ccsc2)ccc2cccnc12 (configuration not stated) | 10% | 5
O=C(CNC(=O)C12CC3CC(CC(C3)C1)C2)NC1=NCCS1 | 5% | 12
COC(=O)CNc1ccc2c(c1)OCO2 | -8% | 3
Cn1nc(CC(=O)Nc2ccccc2Sc2ccc(Cl)cc2)c2ccccc2c1=O | -16% | -8
S=C(NNC(=S)NC1CCCC1)Nc1ccc(Cl)cc1 | 25% | 4
O=C(O)c1cc2n(n1)C(C(F)(F)F)CC(c1ccco1)N2 (configuration not stated) | 4% | 2
Brc1cccc(CNCc2ccccn2)c1 | 20% | 1
O=C(NCCO)c1nc(NCCO)c2ccccc2n1 | 5% | -3
N#Cc1c(-c2ccco2)cc(-c2ccccc2)nc1SCCN1C(=O)c2ccccc2C1=O | -7% | -1
Cc1ccc(S(=O)(=O)N2CCCC2C(=O)OCc2ccco2)cc1 (configuration not stated) | -12% | -5
CCOC(=O)CCCCC(=O)c1[nH]c(=O)n(C(=O)c2ccccc2)c1C | -8% | -3
Next part:
SMILES | motility | motility viability
COc1cc(NS(=O)(=O)N2CCCC2)cc(OC)c1OC | 0% | -3
O=C(CSc1ccccc1)Nc1nnc(/C=C/c2ccccc2)s1 | 9% | -4
O=C(NCC1COc2ccccc2O1)c1ccc(NC(=O)C(c2ccccc2)c2ccccc2)cc1 (configuration not stated) | -2% | 0
CCN1CCN(c2c(Cl)cccc2NC(=O)c2ccc(C#N)cc2F)CC1 | 9% | -1
COc1ccc(C(=O)Nc2ccc(S(=O)(=O)N(C)C3CCCCC3)cc2)c(OC)c1OC | 5% | 2
O=[N+]([O-])c1cc(C(F)(F)F)ccc1NCCc1c[nH]c2ccccc12 | 6% | -1
O=C(CSCC(=O)Nc1ccc2ccccc2c1)NCc1ccco1 | -6% | 3
CCCc1cc(=O)[nH]c(SCc2c(Cl)ccc(Cl)c2Cl)n1 | -12% | -7
O=C(c1cc(-c2ccc(Cl)c(Cl)c2)nc2ccccc12)N1CCN(c2ccccc2F)CC1 | -1% | 7
O=C(Oc1ccc(O)cc1)C12CC3CC(CC(C3)C1)C2 | 9% | 17
CCOC(=O)C(Cc1ccccc1)C(=O)O (configuration not stated) | 8% | 1
Cc1cc2nnc(SCc3cccc4ccccc34)n2c2ccccc12 | -10% | -6
CC(=O)c1cccc(NC(=O)c2cc3nc(C)cc(C)n3n2)c1 | 1% | 1
CC1(C)CC(NC(=O)C23CC4CC(CC(C4)C2)C3)CC(C)(C)N1 | 3% | 4
CCOC(=O)c1ccc(NC(=S)NNC(=O)C2(C)CC2(Cl)Cl)cc1 (configuration not stated) | 27% | 6
Cc1ccc([N+](=O)[O-])cc1N1C(=O)CCC1=O | 5% | 31
CN(C)C(=O)C12CCC(C)(c3nc4cc(Cl)c(Cl)cc4nc31)C2(C)C (configuration not stated) | 14% | 8
COc1ccc(C(CCN)c2ccccc2OC)cc1 (configuration not stated) | -3% | 0
Cc1ccccc1OCC(=O)Nc1c(C)n[nH]c1C | 1% | -1
CCOC(=O)c1ccc(-n2c(=S)[nH]c3cc(C(=O)OC)ccc3c2=O)cc1 | -6% | -5
Oc1ccc(NC(=S)N=Nc2c(O)[nH]c3ccccc23)cc1 | 50% | 11
CC(=O)c1ccc(NC(=O)CSc2ccc(F)cc2)cc1 | 8% | -3
Cc1cc(C)nc(SCC(=O)c2ccc(Cl)cc2Cl)n1 | 12% | 2
Cc1c(C(=O)N2CCc3ccccc32)oc2c1C(=O)CC(C)(C)C2 | -11% | -9
Cc1cc(C)n(CC(=O)n2c(C)c(C)c3ccccc32)n1 | -2% | -1
Next records
SMILES | motility | motility viability
CN(C)S(=O)(=O)N1CCN(C(=O)c2ccco2)CC1 | -1% | -3
CC(Oc1ccc(Cl)cc1Cl)C(=O)Nc1ccc2oc(=O)ccc2c1 (configuration not stated) | 3% | -5
c1ccc(-c2nnc(Cn3c4ccccc4c4nc5ccccc5nc43)o2)cc1 | -4% | -3
O=C(CSc1nc2ccccc2c(=O)n1-c1ccc(Cl)cc1)c1cccs1 | -22% | -9
COc1cc(-c2nnn(CC(=O)O)n2)cc(OC)c1OC | 5% | 10
Cc1ccc(S(=O)(=O)Cc2ccc(Cl)cc2Cl)cc1 | -5% | -5
Cc1cc(C)cc(NC(=O)c2ccc(COCC(F)(F)F)cc2)c1 | -7% | 6
Cc1onc(-c2ccccc2)c1C(=O)n1nnc2ccccc21 | -1% | -10
Cc1ccc(-c2cc(C(F)(F)F)c3nc(OCCC#N)oc3n2)o1 | -2% | -2
Cc1ccc(N(CC(O)CN(Cc2ccccc2)Cc2ccccc2)S(=O)(=O)c2ccc([N+](=O)[O-])cc2)cc1 (configuration not stated) | -6% | -3
CCOc1cc(C=O)cc(I)c1OCC(=O)c1ccccc1 | -46% | -23
CCOC(=O)Nc1c(C)cc(C)cc1Cl | 7% | 0
COc1ccc(CC(=O)NC(C)c2nnc(SCc3ccc(Cl)c(Cl)c3)n2C)cc1 (configuration not stated) | 10% | 1
c1nc2ccc(Oc3ccc4nc[nH]c4c3)cc2[nH]1 | 20% | 31
CCCS(=O)(=O)c1ccc(COC(=O)CN2C(=O)c3cccc([N+](=O)[O-])c3C2=O)cc1 | -13% | 0
O=S(=O)(c1ccc(Cl)cc1)N1CCCC(C(F)(F)F)C1 (configuration not stated) | -11% | -6
Cn1c(CNC(c2ccccc2)c2ccccc2)nc2ccccc21 | 9% | 1
c1ccc2c(c1)nc(-c1cscn1)n2CCCCc1nn[nH]n1 | -4% | 4
CC(=O)NC(Cc1ccccc1)C(=O)NC(Cc1ccccc1)C(=O)O (configuration not stated) | 6% | -3
COc1ccc(S(=O)(=O)NN(C)C)cc1N(C)S(=O)(=O)c1ccc(Cl)cc1 | -2% | 0
CC(C)(C)OC(=O)N1CC2Cc3[nH]c(=O)ccc3C(C2)C1 (configuration not stated) | 16% | 19
CCCCC(=O)Nc1ccc(C(=O)NNC(=O)c2ccc(Cl)cc2Cl)cc1 | 0% | 0
COc1ccc(NC(=S)NNC(=O)c2cc3c(s2)CCCCC3)cc1OC | 19% | -6
CC12CN(NC(=O)c3ccccc3F)C3(C#N)CC1CCC23C (configuration not stated) | 4% | 6
O=C(O)CCn1c(C2CCCCC2)nc2ccccc21 | 9% | 12
Following part
SMILES | motility | motility viability
COc1ccc(-c2csc(NC(=O)CCn3cnc4ccccc4c3=O)n2)cc1OC | 13% | 19
O=C(Nc1ccc2c(c1)Cc1cc(NC(=O)c3ccco3)ccc1-2)c1ccco1 | -1% | 9
COC(=O)c1cc(OC)c(OC)cc1NC(=O)Cn1c([N+](=O)[O-])cnc1C | 11% | 3
COc1ccccc1NC(=O)CSC1=NC(c2ccccc2)CC(=O)N1 (configuration not stated) | 25% | 10
Cc1ccc(S(=O)(=O)CCC(=O)Nc2ccc(Cl)cc2)cc1 | 15% | 11
c1ccc(-n2nnnc2CSc2nnnn2-c2ccccc2)cc1 | 20% | 3
CCN(CC)C(=O)C1CCN(S(=O)(=O)c2ccc3oc4ccccc4c3c2)CC1 | -3% | -5
N/C(=N\OC(=O)c1cccnc1)c1ccc(Cl)cc1Cl | -9% | 1
COc1cc(OC)nc(NC(=O)Nc2ccc(Cl)c(Cl)c2)n1 | 3% | -2
O=C(Cc1ccc(O)cc1)NNC(=S)Nc1cccc(F)c1 | 11% | 1
O=C(CSc1nc2ccccc2s1)NNC(=S)Nc1ccc(F)c(Cl)c1 | 48% | 18
CCOC(=O)c1ccc(NC(=O)c2cn(CCC#N)nc2-c2cccc(Cl)c2)cc1 | -13% | -3
Cc1c(Br)c([N+](=O)[O-])nn1CC(=O)NCC1CCCO1 (configuration not stated) | -19% | -19
CN=C(N)c1cc(I)cc([N+](=O)[O-])c1 | 12% | 22
O=C(NNC(=O)C1CCCCC1)c1ccc(Br)cc1 | -16% | -12
CC(C)N(Cc1ccccc1)S(C)(=O)=O | 20% | 1
O=C(c1ccc(NC(=S)Nc2ccc(F)cc2F)cc1)N1CCOCC1 | 0% | -9
COC(=O)CSc1nnc(-c2cc(OC)c(OC)c(OC)c2)n1C | -3% | 1
COc1ccccc1N1CCN(C(=O)CSc2nc3ccccc3o2)CC1 | 2% | 33
Cc1cc(OCC(=O)NCc2ccccc2)c(C(C)C)cc1Br | 5% | 9
Oc1ccc2ccccc2c1CN1CCN(C(c2ccccc2)c2ccccc2)CC1 | -6% | 4
O=C1c2ccccc2C(=O)c2c1cc1ccccc1c2O | -5% | -1
Cc1cccc(C)c1OCc1nnc(SCC(=O)Nc2ccc(Br)c(C)c2C)o1 | 0% | 0
O=C(c1cccs1)N1CCN(c2nnc(-c3ccccc3)c3ccccc23)CC1 | 3% | 1
CCOC(=O)C1=C(N)SC2=C(C(=O)CC(C)(C)C2)C1c1ccco1 (configuration not stated) | -2% | -4
Additional records follow.
SMILES | motility | motility viability
Cc1cc(I)ccc1NC(=O)CSCc1ccccc1Cl | -10% | -10
Cc1nnc(NC(=O)c2c(F)c(F)c(F)c(F)c2F)s1 | -9% | -9
COc1ccc(OC)c(NC(=O)C(=S)N2CCOCC2)c1 | -12% | -1
COc1ccc(OC)c(C(C)NC(=O)Nc2cccc(Cl)c2C)c1 (configuration not stated) | -9% | -6
O=C(/C=C/c1cccs1)N1CCN(Cc2ccc3c(c2)OCO3)CC1 | 1% | 1
Cc1nnc(SCC(=O)N2CCN(c3nnnn3-c3ccccc3)CC2)s1 | 31% | 11
Cc1ccc(C(=O)NC(=S)Nc2ccc3c(c2)oc2ccccc23)c(C)c1 | 0% | -1
CC(C)(C)NCC(O)COCCC12CC3CC(CC(C3)C1)C2 (configuration not stated) | 28% | 7
Clc1ccc(Cn2nnc(-c3ccccc3Cl)n2)cc1Cl | -7% | -2
CNC(=O)CC1C(=O)N(C)C(=S)N1NC(=O)c1ccc(Cl)cc1 (configuration not stated) | -4% | -8
NC(=O)c1cc(-c2ccccc2)sc1NC(=O)c1ccco1 | 26% | 1
Cc1nnc(SCC(=O)Nc2ccccc2C(F)(F)F)s1 | 6% | 30
Nc1nnc(/C=C/c2ccc3c(c2)OCO3)s1 | 22% | 20
CCOC(=O)Cc1ccc(NS(=O)(=O)c2ccc(SC)cc2)cc1 | 13% | 3
COC(=O)C(=O)CC(=O)c1c[nH]c2ccccc12 | 38% | 16
CCc1nnc(NC(=O)CSc2nnc(-c3ccccc3)c(-c3ccccc3)n2)s1 | 15% | 2
CC(O)C12c3ccccc3C(c3ccccc31)C1C(=O)N(c3ccccc3C(F)(F)F)C(=O)C12 (configuration not stated) | -2% | -5
CCOC(=O)c1c(C)oc2ccc(NS(=O)(=O)c3cccc4cccnc34)cc12 | 9% | -1
COCCn1c(C)cc(C(=O)CSc2nnc(C)s2)c1C | 3% | 0
O=C(NCc1ccco1)C(=O)Nc1ccccn1 | 2% | 8
Cc1c(Cl)cccc1N=C(N)N=C(N)N | 0% | -1
O=C(c1cn(-c2ccccc2)nc1-c1cccnc1)n1nnc2ccccc21 | 10% | -1
COC(=O)c1ccccc1-n1c(CCC(=O)O)ccc1-c1ccc(Br)cc1 | -6% | -2
O=C1N(Cc2ccccc2)c2cccc3cccc(c23)N1Cc1ccccc1 | -12% | -6
CC(C)(C)C(=O)CS(=O)(=O)c1ccc2ccccc2c1 | -7% | -3
Cc1cc(S(=O)(=O)Nc2c(C)ccc3nsnc23)ccc1F | 9% | 6

Entries from the list above with two or more sulfur atoms:
SMILES | motility | motility viability
Cc1nn(Cc2cccc(C(=O)Nc3nc4ccc(S(C)(=O)=O)cc4s3)c2)c(C)c1Cl | -4% | -3
S=C(NNC(=S)NC1CCCC1)Nc1ccc(Cl)cc1 | 25% | 4
O=C(CSc1ccccc1)Nc1nnc(/C=C/c2ccccc2)s1 | 9% | -4
O=C(CSc1nc2ccccc2c(=O)n1-c1ccc(Cl)cc1)c1cccs1 | -22% | -9
COc1ccc(S(=O)(=O)NN(C)C)cc1N(C)S(=O)(=O)c1ccc(Cl)cc1 | -2% | 0
COc1ccc(NC(=S)NNC(=O)c2cc3c(s2)CCCCC3)cc1OC | 19% | -6
O=C(CSc1nc2ccccc2s1)NNC(=S)Nc1ccc(F)c(Cl)c1 | 48% | 18
Cc1nnc(SCC(=O)N2CCN(c3nnnn3-c3ccccc3)CC2)s1 | 31% | 11
Cc1nnc(SCC(=O)Nc2ccccc2C(F)(F)F)s1 | 6% | 30
CCOC(=O)Cc1ccc(NS(=O)(=O)c2ccc(SC)cc2)cc1 | 13% | 3
CCc1nnc(NC(=O)CSc2nnc(-c3ccccc3)c(-c3ccccc3)n2)s1 | 15% | 2
COCCn1c(C)cc(C(=O)CSc2nnc(C)s2)c1C | 3% | 0
Cc1cc(S(=O)(=O)Nc2c(C)ccc3nsnc23)ccc1F | 9% | 6

Screens: PubChem, Southern Research Institute

These rows are one share of the data; the hit share may differ from the screen's.
